GLA inh pH 4.5 = qHTS Assay for Inhibitors of Human alpha-Galactosidase at pH 4.5; Alpha-galactosidase A (Homo sapiens), P06280; purified enzyme, 4-MU-alpha-Gal fluorescence, pH 4.5; activity change, negative = inhibition, % at 105 µM; 230,000 tested, under 10 active; AID 1467, 2008; inconclusive = small, poorly fitted or top-dose-only inhibition, or a rising curve; inactive = flat fitted curve, though single readings scatter; no compound was filed as active;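 note: 0% = full activity with enzyme and -100% = basal without enzyme; dose as in the result columns while the protocol names 77 µM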
Rango release inh = qHTS Assay for Inhibitors of RanGTP induced Rango (Ran-regulated importin-beta cargo) - Importin beta complex dissociation; Snurportin-1 (Homo sapiens) + GTP-binding nuclear protein Ran (Homo sapiens) + Importin …; Biochemical FRET Rango-importin beta, RanGTP-induced dissociation; Potency, µM (top dose mostly 46.1 µM), without a hit: at the top dose activity change, negative = inhibition; 340,000 tested, 0.071% active; AID 540253, 2011; active means falling FRET ratio curve, often poorly fitted, with flat reads before Ran was added; inconclusive means other falling curves, or compound fluorescence or quenching; inactive means flat or rising ratio curve;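 note: potency is the fitted concentration of half-maximal effect; % of control where 0% means no effect; nearly all actives have a fitted effect of over 45% in size; -100% = wells without RanGTP and RCC1; the record marks most hits as doubtful in a second field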
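Compounds sat 5 min at room temperature with 0.1 uM Rango biosensor plus 0.25 uM importin beta, then FRET pre-read. RanGTP-RCC1 (0.6 uM Ran, 2mM GTP, 0.2 uM RCC1) added for 45 min, and the CFP/YFP post-read measured blocked complex dissociation.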
Rango complex inh = qHTS Assay for Inhibitors of Rango (Ran-regulated importin-beta cargo) - Importin beta complex formation | 340,000 tested, 0.031% active | Rango CFP/YFP FRET sensor + importin beta, 45 min | Potency, µM (top dose mostly 92.2 µM), inactives show at the top dose inhibition of complex formation | AID 540263, 2011; active = rising FRET ratio curve, often small or poorly fitted; inconclusive = mostly compound fluorescence or quenching in the first reads; inactive = flat curves in all reads;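 note: potency is the fitted concentration of half-maximal effect; 0% = DMSO wells and 100% = buffer wells lacking importin beta; nearly all actives have a fitted effect of over 15% in size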
Target sequence (Q14974 whole entry, looked up): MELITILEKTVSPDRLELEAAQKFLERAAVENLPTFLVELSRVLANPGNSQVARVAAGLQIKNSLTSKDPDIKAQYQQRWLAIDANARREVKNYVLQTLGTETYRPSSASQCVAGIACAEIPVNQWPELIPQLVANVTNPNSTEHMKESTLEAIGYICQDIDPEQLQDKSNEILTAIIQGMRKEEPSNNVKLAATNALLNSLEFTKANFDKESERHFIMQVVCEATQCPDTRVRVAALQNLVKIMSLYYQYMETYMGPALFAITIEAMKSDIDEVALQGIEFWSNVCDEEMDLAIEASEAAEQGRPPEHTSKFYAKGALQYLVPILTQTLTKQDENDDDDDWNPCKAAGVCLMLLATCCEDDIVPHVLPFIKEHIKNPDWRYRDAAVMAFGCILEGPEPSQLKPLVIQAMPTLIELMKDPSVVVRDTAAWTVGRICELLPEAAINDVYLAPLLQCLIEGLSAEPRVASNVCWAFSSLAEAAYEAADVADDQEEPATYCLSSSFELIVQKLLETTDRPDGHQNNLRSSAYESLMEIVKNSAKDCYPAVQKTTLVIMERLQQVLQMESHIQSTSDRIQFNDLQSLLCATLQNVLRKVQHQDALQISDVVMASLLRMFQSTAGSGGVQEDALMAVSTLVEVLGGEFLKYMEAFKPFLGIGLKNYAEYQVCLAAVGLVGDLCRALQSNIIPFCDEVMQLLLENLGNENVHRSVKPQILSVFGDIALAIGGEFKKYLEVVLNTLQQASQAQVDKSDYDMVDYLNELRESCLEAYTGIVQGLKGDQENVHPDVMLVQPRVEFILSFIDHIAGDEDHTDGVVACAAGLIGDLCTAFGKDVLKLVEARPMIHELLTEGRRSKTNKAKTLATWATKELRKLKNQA
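Inhibition scored from the CFP 486 nm/YFP 530 nm FRET ratio 45 min after adding 0.125 microM importin beta to 50 nM Rango biosensor preincubated 5 min with compound (room temperature, PBS with DTT, Tween-20, BSA). No-importin wells as positive control.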
miR-21 reporter = qHTS Assay for Modulators of miRNAs and/orActivators of miR-21; HeLa miR-21 FLuc reporter, luciferase, 48 h; Potency, µM (series often up to 38.3 µM), for inactives: top-dose reporter change, positive = more light; 340,000 tested, under 10 active; AID 2288, 2010; active = well fitted rising curve with a large enough effect; inconclusive = small, poorly fitted or top-dose-only effect; inactive = no such curve, though single readings can be large or run the other way;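 note: % of control where 0% means no effect; miR-21 action dims this reporter so a rising signal means less miR-21 action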
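Compounds were titrated across several concentrations (up to approximately 40 uM) and incubated 48 hours with HeLa miR-21-FLuc reporter cells (miR-21 target sequence downstream of FLuc, endogenous miR-21). Readout was firefly luciferase luminescence after lytic detection reagent.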
* = called active by the depositor; ? = inconclusive; . = no result given. Only part of the results is shown; the hit share may differ from the screen's.

Order of results: miR-21 reporter	Rango complex inh	Rango release inh	GLA inh pH 4.5
> COc1ccc(OC)c(CC(NC(C)=O)C(=O)NC2CCN(c3nnnn3-c3ccccc3)CC2)c1 (stereo not given)
→ -0.6%	6.2%	-2.4%	-1.4
> C=CCn1c(CSCc2ccc(Cl)cc2Cl)nnc1SCC(=O)Nc1ccc(C(=O)O)cc1
→ -4.8%	1.4%	?	-2.1
> O=C(NCCCN1CCCC1=O)C(=O)NCC1OCCN1S(=O)(=O)c1ccc(Cl)cc1 (stereo not given)
→ -0.1%	-0.3%	-1.0%	.
> O=C(CNC(=O)Cn1cnc2sc3c(c2c1=O)CCCC3)NCc1ccccn1
→ -9.7%	2.3%	-26.5%	-0.2
> O=C(Nn1cnnc1)c1csc2ccccc12
→ -2.3%	1.8%	-11.8%	-1.9
> Cc1ccc(CN(CC(=O)NC(C)(C)C)C(=O)CNC(=O)c2cccs2)cc1
→ 2.0%	2.5%	-6.4%	-6.0
> CC(=O)Nc1ccc(Sc2ccccc2C(=O)N2CCCC2)cn1
→ -0.5%	-1.0%	-3.6%	-2.8
> Cc1ccccc1NC(=O)Cn1c(=O)n(CC2CCCO2)c(=O)c2ccccc21 (stereo not given)
→ 4.3%	-0.1%	14.7%	-3.0
> COc1ccc(C2=NOC(C)(c3nnc(-c4ccccc4)o3)C2)cc1 (stereo not given)
→ .	-4.1%	-12.6%	.
> COc1cc(CC(=O)OCC(=O)N2CCN(C(=O)c3ccco3)CC2)cc(OC)c1OC
→ .	-1.0%	0.3%	.
> CC(C)c1nnc(NC(=O)CN2C(=O)c3ccccc3C2=O)s1
→ -2.9%	2.4%	24.9%	2.6
> O=C(CN1CCN(S(=O)(=O)c2ccccc2F)CC1)N1CCc2ccccc2C1
→ .	3.8%	4.8%	.
> CC(C)(C)NC(=O)COc1ccc(CNCc2ccccn2)cc1
→ -1.7%	3.3%	15.5%	9.2
> CCN1C(=O)C(CC(=O)N2CCN(C(c3ccccc3)c3ccccc3)CC2)N(CC)C1=O (stereo not given)
→ 0.1%	-0.7%	2.0%	-2.3
> COc1ccccc1OCC(=O)NNC(=O)C1CCN(c2ncnc3sc(C)c(C)c23)CC1
→ .	-2.7%	?	.
> CCN(Cc1ccccc1)C(c1cc2cc(C)cc(C)c2[nH]c1=O)c1nnnn1CCOC (stereo not given)
→ -5.3%	-0.8%	-3.3%	1.4
> COc1ccc(N/N=C(\C#N)C(N)=O)cc1
→ -16.4%	?	0.6%	-2.2
> CC(C)CN(C(=O)Cn1c(C(F)(F)F)nc2ccccc21)c1c(N)n(Cc2ccccc2)c(=O)[nH]c1=O
→ .	-3.6%	-9.1%	.
> CCN(CC)Cc1c(C(=O)N/N=C/c2cccc(OCc3cccc(Cl)c3)c2)nnn1-c1nonc1N
→ -15.7%	-0.3%	4.0%	.
> COc1cc(-c2nnc(COC(=O)C3c4ccccc4Oc4ccccc43)o2)cc(OC)c1OC
→ 2.1%	-3.6%	23.3%	-0.1
> CCOc1cc(N2CCOCC2)c(OCC)cc1NC(=O)COC(=O)CCOc1ccc(C)cc1
→ .	-0.5%	4.7%	.
> Clc1nc(Nc2ccc(N3CCOCC3)cc2)c2ccccc2n1
→ 1.9%	3.6%	-11.8%	4.1
> CCc1ccc(CN(C)C(=O)c2cc(COc3cc(C)c(Cl)c(C)c3)on2)nc1
→ 0.3%	-4.5%	15.3%	.
> O=[N+]([O-])c1cc(CN2CCN(c3ccccc3)CC2)c(O)c2ncccc12
→ 26.9%	-1.8%	2.3%	0.8
> CCOc1ccc(C(=O)NC2=NCCS2)cc1
→ -40.5%	.	.	3.8
> COc1ccc(NC(=O)c2ccc(COc3ccccc3)o2)c(OC)c1
→ -6.9%	0.0%	2.7%	.
> O=C(c1cnn(-c2ccccc2)c1)c1cc(Br)ccc1O
→ .	-1.5%	1.1%	.
> Cc1onc(-c2c(F)cccc2Cl)c1C(O)c1ccc(F)cc1 (stereo not given)
→ 4.9%	0.3%	0.7%	1.1
> CCN(CC(=O)Nc1ccc(NC(C)=O)cc1)C(=O)C12CC3CC(CC(Cl)(C3)C1)C2
→ 1.5%	1.0%	-8.3%	.
> CCOC(=O)C(NC(C)=O)C(=O)Nc1ccc(C(C)(C)C)cc1 (stereo not given)
→ -3.6%	-0.8%	-1.6%	1.1

Shown field by field: entries from further up
COc1ccc(NC(=O)c2ccc(COc3ccccc3)o2)c(OC)c1
  miR-21 reporter: -6.9% | Rango complex inh: 0.0% | Rango release inh: 2.7% | GLA inh pH 4.5: .

O=C(c1cnn(-c2ccccc2)c1)c1cc(Br)ccc1O
  miR-21 reporter: . | Rango complex inh: -1.5% | Rango release inh: 1.1% | GLA inh pH 4.5: .

The results go on.
Order of results: miR-21 reporter	Rango complex inh	Rango release inh	GLA inh pH 4.5
> Cc1onc(-c2c(F)cccc2Cl)c1C(=O)Nc1cccc(Cn2cccn2)c1
→ -1.9%	3.2%	2.0%	-5.8
> CC(C)c1ccc(NC(=O)CSc2ncccc2C(=O)Oc2cccc([N+](=O)[O-])c2)cc1
→ -48.7%	0.2%	0.2%	-4.2
> COC(=O)C1=NNCC12CC(=O)N(c1ccc(Br)cc1)C2=O (stereo not given)
→ -3.2%	2.6%	0.7%	0.3
> CCOc1ccccc1NC(=O)[C@@H](NC(=O)c1cccc(S(=O)(=O)N2CCOCC2)c1)C(C)C
→ -4.0%	-1.2%	-15.7%	-14.8
> NC(=S)NN=C1c2ccccc2-c2c(F)c(F)c(F)c(F)c21
→ .	73.1µM*	1.5%	.
> N/C(=N\OC(=O)Cc1ccc([N+](=O)[O-])cc1)c1cccc(Br)c1
→ -1.2%	0.5%	0.1%	-4.4
> C/C(=N/OCO/N=C(\C)c1ccccc1)c1ccccc1
→ 29.2%	2.2%	18.2%	3.8
> O=C(CCN1C(=O)/C(=C/c2ccc(Cl)cc2)SC1=S)NC1C=CS(=O)(=O)C1 (stereo not given)
→ -0.8%	1.6%	8.1%	.
> O=C(N[C@@H]1c2ccccc2CC[C@@H]1OCc1ccccc1)c1ccc(-c2ccccc2)cc1
→ .	-2.0%	-4.3%	.
> O=C(Nc1ccccc1)c1ccccc1CCc1ccccc1
→ 0.8%	-4.2%	3.4%	.
> CCOc1ccc(CCNc2nc3ccc(C)cc3n3cnnc23)cc1OCC
→ -4.9%	4.3%	6.3%	.
> CCOC(=O)C1CCN(Cc2ccc(F)cc2)CC1
→ -4.7%	-1.2%	7.4%	0.6
> CC(=O)OC(C(=O)NC1CCCCC1)c1ccccc1 (stereo not given)
→ -1.3%	0.2%	-6.4%	7.9
> Cc1ccc(OC(C)C(=O)Nc2ccccc2C(=O)N2CCOCC2)cc1 (stereo not given)
→ -0.4%	-1.0%	0.6%	.
> Nc1c(N(CCO)C(=O)c2ccccc2OCc2ccccc2Cl)c(=O)[nH]c(=O)n1Cc1ccccc1
→ .	-4.3%	-6.0%	.
> CCCCCCc1nnc(NC(=O)c2ccco2)s1
→ -17.9%	0.4%	16.3%	.
> C/C(=C\C(=O)c1ccccc1)Nc1ccc(N2CCOCC2)cc1
→ -28.3%	1.1%	-2.9%	6.7
> O=C1CCC(=O)N1CCC(c1ccc(F)cc1)c1ccco1 (stereo not given)
→ -3.0%	-6.3%	2.2%	3.4
> C(=N\Nc1nc2ccccc2[nH]1)/c1ccc2c(c1)OCO2
→ -17.0%	-0.4%	19.5%	-3.5
> CCOc1cc(C(=O)NC2CCCCCCC2)cc(OCC)c1OCC
→ .	1.5%	-15.5%	.
> COC(=O)c1ccc(CSc2nnc(NC(=O)C3CCCO3)s2)cc1 (stereo not given)
→ -13.1%	-2.2%	0.1%	1.8
> O=C(NN=C1C2CC3CC1CC(Cl)(C3)C2)c1cccs1
→ -55.3%	?	3.2%	-1.1
> Cc1ccc(C(=O)C2=C(O)C(=O)N(CCCN3CCOCC3)C23C(=O)N(C)c2ccccc23)o1 (stereo not given)
→ -2.0%	5.9%	-3.4%	-3.1
> Cn1c(Cl)c(/C=N/OC(=O)c2ccc(Cl)cc2)c2ccccc21
→ -6.0%	7.8%	-12.0%	-3.9
> N#Cc1c(-c2ccccc2Cl)cc(C2CC2)nc1N
→ -17.9%	?	-1.1%	-7.7
> O=C(CCN1C(=O)c2cccc3cccc(c23)C1=O)NCC1CCCO1 (stereo not given)
→ -1.2%	2.1%	2.7%	7.6
> CCN(CC)c1ccc(N/C(N)=N/c2nc(C(F)(F)F)cc(=O)[nH]2)cc1
→ 0.1%	-1.2%	0.9%	-4.7
> COCOc1ccc(C=O)c(O)c1
→ .	1.6%	15.5%	.
> O=C(CCCCn1c(=S)[nH]c2ccsc2c1=O)NCc1ccc2c(c1)OCO2
→ -1.8%	0.4%	-3.1%	-14.0
> COc1ccc(C2Nc3ccc4ccccc4c3-c3c2c(=O)oc2ccccc32)cc1 (stereo not given)
→ -2.4%	.	.	23.1
> CC(=O)c1ccc(-c2ccc(C(=O)N3CCC(C(N)=O)CC3)o2)cc1
→ .	0.2%	27.4%	.
> COC(=O)c1cc(OC)c(OC)cc1NC(=S)N1CCCC(CO)C1 (stereo not given)
→ -4.5%	-1.3%	1.6%	1.7
> Nc1nc(NCc2ccccc2)nc(NCCO)c1[N+](=O)[O-]
→ -10.6%	0.2%	-16.3%	-2.4
> COCc1cc(C)nc(Nc2ccc(C)c(C)c2)c1C#N
→ -3.2%	-0.8%	-4.8%	-11.5
> CC(=O)Nc1ccccc1NS(=O)(=O)c1ccccc1[N+](=O)[O-]
→ 0.9%	-0.1%	-3.6%	-0.2
> Cn1nc(-c2ccccc2)c(-c2nc(-c3cccc(Cl)c3)no2)c1Cl
→ -4.2%	0.0%	9.1%	-1.2
> COc1ccc(OC)c2nc(-c3cccnc3)ccc12
→ -54.7%	-2.6%	20.5%	.
> CCOC(=O)/C=C/C(=O)NNC(=O)c1ccccc1Cl
→ 0.4%	3.1%	14.9%	6.7
> O=C(COC(=O)/C=C/c1ccccc1[N+](=O)[O-])Nc1ccc(OC(F)F)cc1
→ 1.6%	0.7%	0.4%	4.4
> COc1ccc(COC(=O)N/N=C(\C)CC(=O)NCc2ccc(Cl)cc2)cc1
→ 4.7%	0.3%	3.0%	-8.1
> O=C(Nc1cc2c3c(c1)CC(=O)N3CCC2)C1CC1
→ .	-0.3%	4.2%	.
> Cc1cc(=O)n2nc(N3CCC(C(=O)N4CCN(c5ccccc5)CC4)CC3)sc2n1
→ -2.9%	1.6%	2.0%	.
> COc1cc(NC(=O)C2CC(=O)NC3=C2C(=O)CCC3)c(OC)cc1Cl (stereo not given)
→ 1.6%	2.9%	0.8%	0.2
> CCOc1ccccc1-c1nc2c([nH]1)c(=O)n(C)c(=O)n2C
→ 11.4%	3.1%	-7.3%	0.6
> Cc1c(Cl)cccc1NC(=O)CNC(=O)C1CC(=O)N(CCc2ccccc2)C1 (stereo not given)
→ .	-2.0%	0.9%	.
> Cc1ccc(NC(=O)c2cc(N(C)C)ccc2[P+](=O)O)cc1
→ -48.2%	3.1%	-13.4%	1.1
> COc1cc(NC(=O)C2CC(c3cccc(OC)c3OC)=NO2)cc(OC)c1OC (stereo not given)
→ 22.7%	-0.7%	-10.6%	8.8
> CC(=O)c1ccc(NC(=O)COC(=O)c2ccc(F)cc2F)cc1
→ 0.0%	-1.6%	-3.0%	.
> Cn1c(N)c(C(=O)COC(=O)c2cncc(Br)c2)c(=O)n(C)c1=O
→ -0.3%	0.8%	0.7%	6.7
> Nc1c(C(=O)Nc2ccc3c(c2)OCCO3)nnn1Cc1cccc(F)c1
→ .	2.7%	-9.0%	.
> Cc1ccc(S(=O)(=O)N2CCN(CC(=O)N/N=C/c3ccco3)CC2)cc1
→ -3.4%	-0.4%	18.9%	-2.9
> COCCCN(C(=S)Nc1c(C)cc(C)cc1C)C(C)c1ccccn1 (stereo not given)
→ -3.0%	3.1%	-2.0%	2.4
> O=C(NC1CC1)C1CCN(C2CCN(C(=O)/C=C/c3cccs3)CC2)CC1
→ -0.8%	3.8%	7.6%	2.8

Assay outcomes from PubChem.
